Screening data as filed in PubChem.
Mtb hypoxia inh: Mtb hypoxia fluorescent reporter inhibition. AID 1159583. fluorescence inhibition, % (no concentration beside the values). M. tuberculosis hypoxia-regulated fluorescent reporter, fluorescence. actives 0.1% (n = 300,000);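 active = 35 to 45% if threefold the growth effect, above 45% if 1.5-fold the growth effect; inactive = the rest, general growth blockers included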;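 also: wells of about 50 µL received 100 nL stock; 0% = vehicle wells and 100% = reference inhibitor wells; whole bacteria with a GFP reporter of the hypoxia response; strong numbers were not always called active; many hits fall short of the cut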
BJeLR lethal: BJeLR cell viability loss; inhibition, % (no concentration beside the values); BJeLR (HRASV12) viability, CellTiter-Glo ATP luminescence, 48 h; reference of the scale not given here; actives 0.17% (n = 300,000); AID 1554;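 active = replicate mean above 50%; inconclusive = above 50% but judged a plate artefact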;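 also: 50 nL library stock added to about 25 µL; numbers are from one replicate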
RN4220 kill: kills Staphylococcus aureus RN4220; S. aureus RN4220 growth, OD600, 16 h; inhibition, % (test concentration not listed); actives 0.33% (n = 330,000); AID 1259311;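 active = z-score of -3 or lower and OD600 up to 0.18 on both plates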;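 also: plate controls were untreated cells for no effect and reference antibiotic for full effect; stock transfer was 100 nL into about 80 µL; one replicate is shown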
Autofluor counter: counter-screen for toxin protease inhibitors: compound fluorescence; actives 3.1% (n = 360,000); fluorescence intensity (concentration not given with the values); AID 624483; compound autofluorescence counterscreen, microsphere flow cytometry; stronger effect = higher value;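 active = at least 3 SD above the mean of all compounds, about 16000 in these data; inconclusive = too few beads counted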;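 also: 100 nL of 1 mM stock went into each well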
Sa ugtP lethal: kills S. aureus RN4220 lacking UgtP | S. aureus RN4220 ugtP deletion, OD600 growth, 16 h; some inactives read as strong as hits | growth inhibition, % (test concentration not listed) | actives 0.54% (n = 330,000) | AID 1259309;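 active = z-score under -3 and OD600 up to 0.15 on both plates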;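 also: plate controls were untreated wells for no effect and antibiotic for full effect; wells of about 80 µL received 100 nL stock; the first replicate is given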
PrP UTR inh: inhibition of PrP 5' UTR reporter expression | inhibition, % (no concentration beside the values) | cell-based PrP 5' UTR mRNA reporter, plate reader | actives 0.35% (n = 340,000);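 active = every replicate at 50% or more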;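 also: 0 = median of the neutral control wells; tested in H4 reporter cells; numbers are from one replicate; inactives centre near -14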
Mtb hypoxia inh growth: recorded beside Mtb hypoxia inh, whose call it bears; growth inhibition, %; measured here: M. tuberculosis growth (absorbance);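 0% = vehicle and 100% = reference antibiotic; read after six days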
The depositor's hits bear a star; u = inconclusive; x = no result given. The order is random; any-hit rate near 4%.

SMILES	Mtb hypoxia inh	Mtb hypoxia inh growth	BJeLR lethal	RN4220 kill	Autofluor counter	Sa ugtP lethal	PrP UTR inh
Cc1cc(OCCCC(=O)NC2=NCCS2)ccc1Cl	9	8	6	6.0	4100	4	-17
O=C(Nc1ccc(Cc2ccncc2)cc1)c1ccc(N2CCOCC2)c([N+](=O)[O-])c1	-7	3	-1	3.3	4514	11	-21
COc1cc(/C=N/Nc2cc(C)nc(NS(=O)(=O)c3ccccc3)n2)ccc1O	x	x	-9	x	4647	x	-27
COC(=O)Cc1c(C)c2ccc(OCC(=O)N(C)C3CCS(=O)(=O)C3)cc2oc1=O (configuration not stated)	-2	-1	0	-1.5	3901	2	-8
COC(=O)CSc1nsc(SCC(=O)OC)c1C#N	1	-2	-4	-0.1	4371	1	-21
COc1cc([N+](=O)[O-])ccc1NC(=O)CCCOc1cccc(C)c1C	8	4	-1	9.5	7811	-5	x
O=c1[nH]ncn1-c1cccc(C(F)(F)F)c1	11	11	5	3.3	8043	1	-36
CC(C)CC(c1nnnn1CC1CCCO1)N1CCN(C2CCCC2)CC1 (configuration not stated)	x	x	2	1.0	4875	-1	-15
Cc1nn(-c2ccccc2)c(Cl)c1C(=O)NC1CCCCC1	x	x	-4	5.2	2019	0	-11
Cn1c(N)c(Sc2ccc(F)cc2)c(=O)n(C)c1=O	-3	1	-4	-2.2	2038	-3	-24
COc1ccc(S(=O)(=O)/N=C2\C=C(NS(=O)(=O)c3ccccc3)C(=O)c3ccccc32)cc1	24	2	-5	17	5051	1	-36
Cc1sc(=NC(=O)c2ccco2)n(C)c1-c1ccc(Cl)cc1	22	12	-5	16	12041	-3	-51
Cc1cc(Cl)ccc1OCC(=O)Nc1ccncc1	-6	13	4	-3.1	3858	-9	-43
CCCCn1c(Oc2ccc(C(=O)OC)cc2)nc2c1c(=O)n(C)c(=O)n2C	3	4	-3	2.4	13121	-4	-4
Cc1cc(C)n2nc(CNS(=O)(=O)c3ccc(CC(C)C)cc3)nc2n1	6	15	0	-11	5432	-9	-5
CC1CN(CC(=O)NN=C(c2ccccc2)c2ccccc2)CC(C)O1 (configuration not stated)	8	2	6	8.7	3246	-1	-28
O=S(=O)(NCc1ccccn1)C(F)(F)F	5	6	7	6.4	3602	5	13
CCCCOc1ccc(C(=O)N/C(=C/c2cccc([N+](=O)[O-])c2)C(=O)O)cc1	5	6	-10	2.4	4503	6	-19
COc1ccc(S(=O)(=O)n2nc(OC(=O)C3CCCCC3)cc2N)cc1	3	5	-8	-0.6	4497	2	-4
Cc1noc(C(=O)N2CCN(c3ccccc3)CC2)c1Cl	13	12	4	4.3	5495	-1	-22
Cc1ccc(OCC(=O)N2CCCc3ccccc32)cc1	8	13	-6	4.1	3227	-3	-29
Cc1ccc2cc(CCNC(=O)C(=O)c3c[nH]c4ccccc34)c(=O)[nH]c2c1	13	6	-2	4.7	2197	-6	-16
Cc1ccccc1NC(=O)COC(=O)[C@@H]1CCCN1C(=O)c1cccs1	6	9	x	2.9	4256	0	1
S=c1[nH]nc(-c2ccccn2)n1/N=C/c1ccc(Cl)cc1	x	x	9	x	u	x	-24
O=C(NCCCO)c1ccc2nc(-c3ccco3)c(-c3ccco3)nc2c1	10	4	x	11	3209	-3	-20
C/C(CCC(C)C)=N\NC(=S)Nc1cc(S(=O)(=O)N2CCOCC2)ccc1N1CCOCC1	x	x	-6	x	4343	x	-19
COc1ccccc1CCNC(=O)C(=O)NCC1OCCCN1S(=O)(=O)c1ccc(F)cc1C (configuration not stated)	x	x	-5	x	5574	x	-19
Cc1ccc(C)c(OCCOCCN2CC(C)OC(C)C2)c1C (configuration not stated)	9	4	-26	3.6	6638	6	12
CC(C)NS(=O)(=O)c1ccc(OCC(=O)N2CCN(C)CC2)cc1	x	x	-3	5.1	4491	10	-6
COc1ccc(C(=O)N2CCOCC2)cc1Br	4	4	-5	2.4	4254	-11	-14

Among those listed so far, 3 have a nitro group on carbon.
SMILES	Mtb hypoxia inh	Mtb hypoxia inh growth	BJeLR lethal	RN4220 kill	Autofluor counter	Sa ugtP lethal	PrP UTR inh
O=C(Nc1ccc(Cc2ccncc2)cc1)c1ccc(N2CCOCC2)c([N+](=O)[O-])c1	-7	3	-1	3.3	4514	11	-21
COc1cc([N+](=O)[O-])ccc1NC(=O)CCCOc1cccc(C)c1C	8	4	-1	9.5	7811	-5	x
CCCCOc1ccc(C(=O)N/C(=C/c2cccc([N+](=O)[O-])c2)C(=O)O)cc1	5	6	-10	2.4	4503	6	-19

(continued)
SMILES	Mtb hypoxia inh	Mtb hypoxia inh growth	BJeLR lethal	RN4220 kill	Autofluor counter	Sa ugtP lethal	PrP UTR inh
CCN(CC)S(=O)(=O)c1ccc2c(c1)c(=O)c(C(=O)NCCN(C)CCc1ccccc1)cn2C	-13	10	-8	-5.6	9576	-10	-29
COc1ccc(NS(=O)(=O)c2cc(C(=O)N3CCN(C/C=C/c4ccccc4)CC3)ccc2C)cc1	x	x	1	x	6527	x	-16
O=C(Cn1c(S(=O)(=O)Cc2ccccc2)nc2ccccc21)N1CCCCC1	-2	-5	-1	-2.3	4585	-3	-14
CCCSc1nnc2n(-c3ccccc3OC)c(=O)c3c4c(sc3n12)CCC4	-4	3	-6	-11	3021	-6	-9
CC(C)C(NCc1c(Cl)cccc1Cl)C(=O)O (configuration not stated)	6	3	-2	4.2	21266*	4	-8
Cc1cc(C)n(CC(C)NC(=O)c2cc(COc3ccc(F)c(F)c3)on2)n1 (configuration not stated)	5	-7	3	6.6	5852	-1	-48
Cc1ccc2c(c1)C1C(CO2)C(c2ccccc2)[C@]2(C)C(=O)NC(C)C(=O)N12 (some centres not stated)	22	8	x	7.2	x	4	x
CC(C)CNC(=O)C(=O)N/N=C/c1cccs1	x	x	0	x	18172*	x	-32
O=c1[nH]nc(NN=Cc2ccc(Cl)cc2Cl)c(=O)[nH]1	6	12	x	7.6	x	2	x
Cc1cc[n+](-c2[nH]c(=O)sc2C=N/N=C(\[O-])c2ccccc2)cc1	5	-1	x	2.0	x	1	x
Cc1ccccc1C(=O)c1c[nH]c(C(=O)N=CN(C)C)c1	1	-5	1	3.7	4132	-4	-22
COc1ccc(C=NN2C(C)CCCC2C)cc1O (configuration not stated)	17	4	x	2.4	x	5	x
O=C(NCC1COc2ccccc2O1)C1CCN(S(=O)(=O)c2cccc3nsnc23)CC1 (configuration not stated)	-1	5	-2	-3.8	x	1	-65
COc1ccc(C(=O)NCCn2cc(SCC(=O)NCC3CCCO3)c3ccccc32)cc1 (configuration not stated)	2	-2	-13	-0.1	3816	-1	-7
O=C(c1ccccc1)C1CCN(C(=O)c2ccco2)CC1	-1	-8	-15	6.9	4734	15	6
CC(C)Oc1ccc(C(=O)OCC(=O)NCCNC(=O)COC(=O)c2ccc(OC(C)C)cc2)cc1	-6	6	11	2.0	7231	2	-9
Cc1cccc(C(=O)Oc2ccc(C=NNC(=O)c3ccc(O)cc3)cc2)c1	-3	6	x	-4.2	x	14	x
COc1cc(C(=S)N2CCCCC2)ccc1OCC(=O)Nc1ccc(F)cc1	2	1	-1	1.0	6224	2	8
COc1ccc(-c2cc(C(=O)N3CCCCC3)c3ccccc3n2)cc1	0	6	0	0.1	4518	0	-9
Cc1cc(C(=O)N2CCOCC2)ccc1[N+](=O)[O-]	-2	9	-3	1.6	3406	-73	-16
Cc1c(NC(=O)c2cccc(S(=O)(=O)N(C)c3ccccc3)c2)c(=O)n(-c2ccccc2)n1C	3	3	x	-1.1	3957	3	11
CC(=O)N1CCN(C(=O)COC(=O)c2ccc(S(C)(=O)=O)cc2)CC1	10	7	x	5.1	2860	8	-26
CCN1CCN(Cc2cc3c(cc2[N+](=O)[O-])OCO3)CC1	8	-2	-9	2.7	3192	8	-3
Cc1ccc(-c2cc(C(=O)N3CCN(C(=O)c4ccco4)CC3)[nH]n2)cc1C	17	7	-1	3.6	6225	4	-8
COC(=O)CNC(=O)COc1ccccc1	x	x	-6	-1.6	2518	1	-28
O=C1CN(C(=O)OCc2ccccc2)c2ccccc2N1	x	x	-5	4.5	4272	4	-54
CC(NC(=O)c1ccccc1Br)C1CC2CCC1C2 (configuration not stated)	15	14	-2	21	5723	10	x
CCCCCCCCCCSc1n[nH]c(N)n1	10	13	-4	16	2673	84*	-23
Cc1cccc(N(CC(=O)NCc2ccco2)C(=O)CCC(=O)Nc2ccccn2)c1	x	x	1	-1.0	2090	3	-2
CCN(CC)C(=O)CSc1ccccc1N	4	6	-3	1.3	2821	-6	-13
Cc1cccc(CCNC(=O)CC2C(=O)NCCN2Cc2ccccc2C)n1 (configuration not stated)	4	7	6	1.4	5493	5	-14
CCOc1ccc(OCC(=O)Nc2ccc(S(=O)(=O)Nc3cc(C)nc(C)n3)cc2)cc1	-2	1	4	0.5	2536	2	-11
COc1cc2nc(NCCCN3CCN(C)CC3)n3nc(-c4ccccc4)nc3c2cc1OC	-73	-10	4	6.4	4511	-9	-10
C/C=C/C(=O)OCc1csc(CC(=O)Nc2ccccc2C)n1	-1	6	-7	-1.5	u	-3	-10
O=C(c1cccc([N+](=O)[O-])c1)N1CCN(Cc2ccc3c(c2)OCO3)CC1	7	2	-13	1.1	2687	3	-13
Cc1noc(C)c1C(=O)NCCc1ccc(Cl)cc1	7	13	-3	6.3	8324	1	1
COc1ccc(/C=C(\C#N)C(=O)OCC(=O)NCc2ccco2)cc1	-2	-6	10	3.8	4017	10	-2
CCOC(=O)c1csc(NC(=O)c2ccc(C#N)cc2)n1	10	2	-5	4.6	3455	8	-7

Some entries already given, showing only PrP UTR inh and BJeLR lethal:
canonical_smiles,PrP UTR inh,BJeLR lethal
COc1ccc(/C=C(\C#N)C(=O)OCC(=O)NCc2ccco2)cc1,-2,10
CCOc1ccc(OCC(=O)Nc2ccc(S(=O)(=O)Nc3cc(C)nc(C)n3)cc2)cc1,-11,4
COc1cc2nc(NCCCN3CCN(C)CC3)n3nc(-c4ccccc4)nc3c2cc1OC,-10,4
CCOC(=O)c1csc(NC(=O)c2ccc(C#N)cc2)n1,-7,-5
C/C=C/C(=O)OCc1csc(CC(=O)Nc2ccccc2C)n1,-10,-7
